HPGD inh: inhibitors of human 15-hydroxyprostaglandin dehydrogenase (HPGD); P15428; purified HPGD, NADH fluorescence kinetic, PGE2 substrate; Potency, µM, inactives show at the top dose activity change, negative = inhibition, actives largely listed as inhibitors; 150,000 compounds, 4.3% hits; active = well fitted inhibition curve with a large enough effect (not every such curve was filed as active); inconclusive = small, poorly fitted or top-dose-only effect, or another doubt; inactive = no such curve, though single readings can be large or run the other way;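 note: top concentration of the series not given in the record; plate controls included wells without enzyme; inactives centre near -10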
Target sequence (P15428 whole entry, looked up): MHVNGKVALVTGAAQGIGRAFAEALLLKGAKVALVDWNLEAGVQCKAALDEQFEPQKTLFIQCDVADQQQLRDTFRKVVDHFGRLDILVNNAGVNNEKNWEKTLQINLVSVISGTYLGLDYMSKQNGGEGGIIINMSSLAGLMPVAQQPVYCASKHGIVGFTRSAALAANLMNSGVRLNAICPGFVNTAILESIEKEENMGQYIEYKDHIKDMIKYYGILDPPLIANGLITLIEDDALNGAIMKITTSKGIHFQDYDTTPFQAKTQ
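NADH formation kinetics: reaction with 30 uM PGE2 and 1 mM NAD+ (final), 20 nM enzyme, Tris-HCl pH 8 with Tween 20, after 15 min compound preincubation at room temperature. Fluorescence change, last versus first of five reads.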
* = called active by the depositor; ? = inconclusive; & = joins results of further samples. % is set by controls: 0 for no effect and ±100 for the full control effect; potency is the fitted concentration of half-maximal effect.

SMILES	HPGD inh
COc1ccccc1-c1c(C)oc2c(CN3CCN(CCO)CC3)c(O)ccc2c1=O	?
CSC1=N/C(=C\c2cccc(F)c2)C(=O)S1	-2%
Cc1ccc(C)c(NC(=O)C2CCC(C)(C(=O)O)C2(C)C)c1 (configuration not stated)	-5%
CC(C)Sc1nc(-c2ccccc2)cc(=O)[nH]1	-30%
O=C(CSc1nnc(Cn2c(=O)sc3ccccc32)n1CCc1ccccc1)N1CCOCC1	-5%
CCN(CC)S(=O)(=O)c1ccc(C(=O)OCCN2C(=O)CCC2=O)cc1	-5%
C=CCN1N=C(c2ccc(Cl)s2)CSC1=O	-6%
COc1cc2c(cc1OC)C1CCC3=C([C@H](C)OC3=O)N1CC2 (some centres not stated)	?
COc1ccc(CC(=O)Nc2cccc(S(=O)(=O)N3CCCCCC3)c2)cc1OC	-12%
O=C(/C=C\Nc1ccccn1)c1ccc(Cl)cc1	-17%
COC(=O)c1ccc(/C=N/N2CCN(Cc3ccc(C)cc3C)CC2)cc1	-9%
CCCCNC(=O)c1ccc(NC(=O)C2CCCO2)cc1 (configuration not stated)	?
C=CCn1c(SCC(=O)NC(=O)NCC(C)C)nnc1C1CCCCC1	1%
COC(=O)c1cc(-c2ccccc2)sc1NC(=O)c1cc(C)on1	?
CCOC(=O)c1ccc(NC(=O)CCNS(=O)(=O)c2ccc3c(c2)oc(=O)n3C)cc1	0%
O=C(Nc1c2c(nc3ccccc13)CCCC2)c1ccccc1Cl	-9%
COc1ccccc1-c1nc2n(n1)C(c1cccs1)C(C(=O)Nc1cccnc1)=C(C)N2 (configuration not stated)	-6%
O=C(COC(=O)c1ccc(-c2ccccc2)cc1)Nc1ccccc1-c1ccccc1	-29%
CCc1ccc(N(CC(=O)NC2CCCC2)S(=O)(=O)c2c(C)noc2C)cc1	-10%
O=C(c1cccnc1)N1CCN(c2c(Cl)cccc2[N+](=O)[O-])CC1	-14%
Oc1ccccc1N=Cc1ccc[nH]1	-7%
CCOc1cc(OCC)cc(C(=O)O)c1	-5%
CCCCCOc1ccc2oc(=O)c3c(c2c1)CCCN3C(=O)CN1CCCC(C(=O)OCC)C1 (configuration not stated)	-12%
CCOC(=O)Nc1cc(C(=O)OC)cc(C(=O)OC)c1	-24%
COc1cc(C)c(C(C)C)cc1S(=O)(=O)n1ccnc1	-19%
CC(=O)NC(CCS(C)(=O)=O)C(=O)Nc1cc(C)ccc1C (configuration not stated)	-6%
CCCc1cc(O)c2c(C)cc(=O)oc2c1	-15%
COCCn1c(SCC(=O)c2ccc(Cl)cc2)nnc1C(C)C	?
CCC(CC)c1nnc(NC(=O)c2ccc([N+](=O)[O-])cc2)s1	-11%
CCC(C)(C)n1nnnc1C(c1cc2ccc(OC)cc2[nH]c1=O)N1CCN(C2CCCCC2)CC1 (configuration not stated)	-7%
CCOc1ccc(CNc2ccc(N3CCCC3)cc2)cc1	-2%
CC(=O)O[C@H]1C[C@H]2CC[C@@H]3[C@H]4C[C@@H]([N+]5(C)CCCCC5)[C@@H](OC(C)=O)[C@]4(C)CC[C@@H]3[C@@]2(C)C[C@@H]1[N+]1(C)CCCCC1	-1%
Cc1cccc(-n2c(N)cc(=O)nc2SCC(=O)Nc2cc(C)on2)c1	-11%
Cc1cc(C(=O)CSc2nnc(N)s2)c(C)n1CCc1ccc(F)cc1	-9%
CCOC(=O)N1CCN(C(=O)c2ccc(CS(=O)(=O)c3ccccc3OC)o2)CC1	-13%
C=CCn1c(SCCC(=O)O)nnc1-c1cccs1	-18%
CCCc1c(O)c2ccccc2[nH]c1=O	?
Cn1c(Cn2nnc3ccccc32)nnc1SCC(N)=O	-11%
CC1(C)NC(=O)N(c2ccc([N+](=O)[O-])c(C(F)(F)F)c2)C1=O	-16%&-9%&-1%&-3%
COc1cc(-c2ccc(N=C=O)c(OC)c2)ccc1N=C=O	?
CCCc1cc(-c2n[nH]c(C(=O)OCC)c2-c2cscn2)c(O)cc1O	3%
CCCCCCCCCCC/C=C\C/C=C\CCCC(=O)O	-8%
Cc1cc(C)c2[nH]c(=O)c(CN(Cc3cccs3)C(=S)NCC3CCCO3)cc2c1 (configuration not stated)	-21%
CCOc1ccc(CCNC(=O)c2cccnc2N2CCCC2)cc1OCC	-1%
O=S(=O)(Nc1ccc(N2CCCCC2)cc1)c1ccccc1	-20%
O=C(CSc1nnc(-c2cccnc2)n1Cc1ccco1)N1CCc2ccccc21	-17%
O=C(COC(=O)c1c[nH]c(=O)[nH]c1=O)NCc1ccccc1	-3%
Cc1cc(N2CCC(N(C)C3CCCC3)CC2)nc2cc(O)ccc12	?
O=C(Nc1ccc2c(c1)nc1n2CCSC1)c1ccco1	?
c1cncc(-c2nn3c(Cn4cnc5ccccc54)nnc3s2)c1	3.2µM*
Cc1cccc(OCCCC(=O)NCc2ccco2)c1	-19%
COc1nc(Nc2ccc(O)cc2)nc(OC(C(F)(F)F)C(F)(F)F)n1	-5%
CCC1CCCCN1C(=O)CSc1nnc(-c2cccs2)o1 (configuration not stated)	?
O=C(NCCc1ccc(Cl)cc1)C1CCN(S(=O)(=O)c2cccs2)CC1	4%
C=C(C)Cn1c(CCn2c3ccccc3c3ccccc32)n[nH]c1=S	?
Oc1c(C(Nc2ccccn2)c2ccccn2)ccc2cccnc12 (configuration not stated)	-14%
O=C(CSc1nnc(-c2ccccc2)n1-c1ccccc1)N1c2ccccc2Sc2ccccc21	-15%
Cc1ccc(CNC(=O)C2CCN(S(=O)(=O)c3ccc4c(c3)OCCCO4)CC2)cc1	-10%
COC(=O)c1ccc(CN(c2ccccc2OC)S(=O)(=O)c2cccs2)o1	-4%
O=C(NCCCN1CCN(Cc2ccccc2)CC1)C1CCN(c2nnc(-n3cccc3)s2)CC1	-9%

Grouped by structure: the compounds so far containing a CF3 group
SMILES	HPGD inh
CC1(C)NC(=O)N(c2ccc([N+](=O)[O-])c(C(F)(F)F)c2)C1=O	-16%&-9%&-1%&-3%
COc1nc(Nc2ccc(O)cc2)nc(OC(C(F)(F)F)C(F)(F)F)n1	-5%

Continuation.
SMILES	HPGD inh
COc1ccc(-c2csc(N3C(=O)C4C5c6ccccc6C(c6ccccc65)C4C3=O)n2)cc1 (configuration not stated)	-2%
COc1cccc2c(=O)n(CC(=O)NC3CCCCC3)ccc12	-11%
CCNc1nc(NC(C)(C)C)nc(N(CC)n2cnnc2)n1	-7%
CCCSc1nnc(NC(=O)c2sc3nc(-c4cccs4)ccc3c2N)s1	-19%
Cc1cc(NC(=O)/C=C/c2ccc(Cl)cc2)no1	-6%
CC1=C(/C=C/C(C)=C/C=C/C(C)=C/C=C/C=C(C)/C=C/C=C(C)/C=C/C2=C(C)CCCC2(C)C)C(C)(C)CCC1	-8%
COC(=O)[C@H](CCCN=C(N)N)NC(=O)CCCc1c(-c2ccccc2)[nH]c2c(F)cc(F)cc12	-12%
CCOC(=O)c1nnn(-c2ccc(OC)cc2)c1N	-6%
CC(=O)[C@H](CC(C)C)NC(=O)[C@@H](CC(C)C)NC(=O)[C@H](CC(C)C)NC(=O)OCc1ccccc1	-2%
CN(C)c1ccc(/C=N/NC(=O)c2ccc(Cn3cc(Br)cn3)o2)cc1	?
CC(Cc1ccccc1)NC(=O)CSc1nc2nc3c(cc2c(=O)n1-c1ccccc1)COC(C)(C)C3 (configuration not stated)	-9%
Cc1cccc(C(=O)N2CCC(=O)N(C(COCc3ccccc3)Cc3ccccc3)CC2)c1 (configuration not stated)	-13%

2 entries picked at random from those above:
SMILES	HPGD inh
COC(=O)[C@H](CCCN=C(N)N)NC(=O)CCCc1c(-c2ccccc2)[nH]c2c(F)cc(F)cc12	-12%
CC1=C(/C=C/C(C)=C/C=C/C(C)=C/C=C/C=C(C)/C=C/C=C(C)/C=C/C2=C(C)CCCC2(C)C)C(C)(C)CCC1	-8%

(listing goes on)
SMILES	HPGD inh
CC1(C)CC(=O)C=C(NC2=CC3OC(c4ccccc4)OCC3OC2=O)C1 (configuration not stated)	-7%
COC(=O)c1cn(NC(=O)c2ccc(F)cc2)c(=O)c2ccccc12	-15%
COc1ccc(/C=C/c2nnc(NC(=O)COc3ccc(C)cc3)s2)cc1	?
CC(C)(C)c1cc(C(F)(F)F)nc(SCCCNC(=O)c2ccco2)n1	-1%
Cn1c(Cc2cccc3ccccc23)nnc1SCc1ccc([N+](=O)[O-])cc1	-10%
O=C(COc1ccc2ccccc2c1)NNC(=O)c1cccs1	-10%
CCCn1c(=O)c2ccccc2n2c(SCCOc3ccc(OC)cc3)nnc12	-18%
COC/C=C/C1=CC2=CC(=O)C(C)(OC(=O)c3cnc4ccccc4n3)C(=O)C2=CN1CCc1c[nH]c2ccccc12 (configuration not stated)	-4%
N/C(=N\OC(=O)Cc1ccc(Cl)cc1)c1cccnc1	-7%
CC1(C)[C@@H]2CC[C@@](C)(C2)[C@H]1OC(=O)c1ccccc1C(=O)O	-7%
O=C1CC(c2nc3ccccc3[nH]2)CN1c1cccc(C(F)(F)F)c1 (configuration not stated)	-7%
CC(=O)Cn1cnc2sc(-c3ccccc3)cc2c1=O	-14%
O=C(O)C1CC=CCC1C(=O)N1CCN(c2nc(-c3ccccc3Cl)c3cc(Br)ccc3n2)CC1 (configuration not stated)	-20%
CCOC(=O)N1CCC(N(CCN(C)C)C(=S)Nc2cc(C)ccc2C)CC1	-6%
CCC(C)Oc1cccc(C(=O)Nc2ccccc2N2CCOCC2)c1 (configuration not stated)	-18%
O=C(COc1ccc2ccccc2c1Br)Nn1cnnc1	-1%
CCc1cc(Cl)c(OC)c(C(=O)NC[C@@H]2CCCN2CC)c1O	-9%&-4%
Cc1cc(C)nc(N/N=C/C(Cl)=C/c2ccccc2)n1	-20%
Cc1cccc(OCCn2c(CCCO)nc3ccccc32)c1	-15%
CCOc1ccccc1NC(=O)COC(=O)CN(C)S(=O)(=O)c1ccc(C)cc1	-17%
COc1ccc(OCC(=O)NNC(=O)C2CCCO2)cc1 (configuration not stated)	-6%
O=C(NC(Cc1ccccc1)C(=O)O)/C(=C\c1ccc(F)cc1)NC(=O)c1ccccc1 (configuration not stated)	3%
O=C(CCCl)Nc1cc(SCCO)cc([N+](=O)[O-])c1	0%
Cc1cc(NC(=O)c2ccc(NC(=O)c3cccs3)cc2)no1	-13%

Arranged by formula weight (high to low): 7 of the compounds above
SMILES	HPGD inh
O=C(CSc1nnc(-c2ccccc2)n1-c1ccccc1)N1c2ccccc2Sc2ccccc21	-15%
O=C(CSc1nnc(-c2cccnc2)n1Cc1ccco1)N1CCc2ccccc21	-17%
COC(=O)c1ccc(CN(c2ccccc2OC)S(=O)(=O)c2cccs2)o1	-4%
COC(=O)c1cc(-c2ccccc2)sc1NC(=O)c1cc(C)on1	?
O=C(COc1ccc2ccccc2c1)NNC(=O)c1cccs1	-10%
COc1cc(-c2ccc(N=C=O)c(OC)c2)ccc1N=C=O	?
CCOC(=O)Nc1cc(C(=O)OC)cc(C(=O)OC)c1	-24%

More structures follow.
SMILES	HPGD inh
COc1cc(C(=O)N/N=C/C2CC=CCC2)cc(OC)c1OC (configuration not stated)	-10%
CC(=O)OCC(OC(C)=O)C(OC(C)=O)C(OC(C)=O)C(=O)Nc1ccc(C)cc1 (configuration not stated)	-11%
CCc1ccccc1NC(=O)CN(C)C(=O)Cn1ncc(Cl)c(Cl)c1=O	-4%
O=C(CN1CCCCCC1)Nc1ccccc1F	-21%
CCCC(=O)Nc1c(C)n[nH]c1C	-5%
O=C(Nc1ccc2[nH]c(=S)sc2c1)c1ccccc1	-20%
Cc1nc(N2CCCC2)c2ccsc2n1	-16%
Cc1cc2c(cc1C)C(=O)NC(C)(C)C2	-12%
COC(=O)c1nc2n(n1)C(c1cccc(Cl)c1)C1=C(CCCC1=O)N2 (configuration not stated)	16µM*
CCc1nc(Sc2nc(C)cc(C)n2)c2oc3ccccc3c2n1	-25%
O=C(Nc1cccc(C(F)(F)F)c1)/C(=C/c1ccco1)NC(=O)c1cccs1	-22%
COc1cc(NC(=O)Nc2ccccc2OC)c(OC)cc1NC(=O)CN1CCCCC1	-8%
CCOc1ccc(C(=O)NCC(=O)OCc2csc(-c3ccccc3)n2)cc1	-16%
Cc1nnc(SCC(=O)NCc2ccc3c(c2)OCO3)[nH]c1=O	-9%
Cc1ccc(-c2nn(-c3ccccc3)cc2/C=N/NS(=O)(=O)c2ccccc2)cc1	-14%
Cc1c(NC(=O)c2cc(-n3cnnc3)ccc2Cl)cccc1-c1nc2ccccc2o1	-13%
N#Cc1c(NC(=O)CSc2ncn(-c3ccccc3)n2)sc2c1CCCC2	-14%
CCSc1nc(C)cc(Oc2ccc(=O)n(C)n2)n1	-4%
CCn1c(SCC(=O)Nc2cc(C)ccc2C)nc2c(c1=O)SC(C)C2 (configuration not stated)	-6%
CC(=O)N1CCN(c2ccccc2NC(=O)COc2ccc(Cl)cc2Cl)CC1	0%
Cn1c(=O)c(C(=O)Nc2cnccn2)c(O)c2ccccc21	-13%
Oc1ccccc1C1=Nc2ccccc2N=C(c2ccco2)C1	-12%
COC(=O)c1[nH]c2ccccc2c1NC(=O)CN1CCN(c2cccc(OC)c2)C(C)C1 (configuration not stated)	-21%
Cc1ccc2c(CC(=O)OCc3cc(=O)n4c(n3)sc3ccccc34)coc2c1	?

4 of these compounds, set out differently.
molecule,HPGD inh
CCSc1nc(C)cc(Oc2ccc(=O)n(C)n2)n1,-4%
CCn1c(SCC(=O)Nc2cc(C)ccc2C)nc2c(c1=O)SC(C)C2 (configuration not stated),-6%
CC(=O)N1CCN(c2ccccc2NC(=O)COc2ccc(Cl)cc2Cl)CC1,0%
Cn1c(=O)c(C(=O)Nc2cnccn2)c(O)c2ccccc21,-13%

Continuation:
SMILES	HPGD inh
Cc1cc2c(cc(C(=O)OC(C(=O)NCc3ccco3)C(C)C)n2C)o1 (configuration not stated)	-28%
CCN(CC)C(=O)CSc1nc2cccnc2n1-c1ccccc1OC	-5%
CN(C)CC(=O)c1c[nH]c2ccccc12	-1%
O=C(N/N=C/c1cc(Cl)cc([N+](=O)[O-])c1O)NC12CC3CC(CC(C3)C1)C2	-14%

Screening results (PubChem)

Only part of the results is shown; count on the stated rates, not on these rows.
